MT1-MMP act inh = blocks activation of human MT1-MMP. GFP/RFP ratio change, % at 20 µM. P50281. HT1080 RFP-PRO-GFP cells, GFP/RFP ratio fluorescence, overnight; percent of plate control window, DMSO zero. 0.061% of 360,000 active;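 active means GFP/RFP ratio change of at least 30% with cell ATP level not reduced by more than half and red fluorescence within 50% of control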; further: strong numbers were not always called active
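Read-out: GFP/RFP fluorescence ratio; Test system: RFP-PRO-GFP reporter HT1080 cells; Compound dosing: single-point 20 µM compound, 1% DMSO; Times: overnight compound exposure at 37 °C.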
CSC inhib = cancer stem cell inhibition | cancer stem cell-like cells viability, luminescence | inhibition, % at 7.5 µM | 1.1% of 300,000 active;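 active means mean at 75% or more and at least half the replicates too; inconclusive means mean and replicates disagree; tested in HMLE shEcad cells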;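 further: 0% = median of negative and 100% = median of positive control wells; the first replicate is given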
HIV Env fusion = blocks HIV Env-driven cell-cell fusion; HeLa-JRFL Env/CEM21 cell fusion, luciferase; AID 651610; 1.1% of 360,000 active; inhibition, % at 12.3 µM;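 active means mean replicate inhibition score of at least 50 and every replicate individually at or above 50; inconclusive means only one of the two criteria met; inactive means mean below 50 and not all replicates reaching 50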;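 further: 0% = plate neutral controls and 100% = maraviroc near 300 nM; one replicate is shown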
PABP polyA inh = PABP-poly(A) binding inhibition | inhibition, % at 35 µM | P11940 | PABP-poly(A) RNA binding, fluorescence polarization | 1% of 290,000 active | AID 2014;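 active means 50% or more with normal probe brightness, or confirmed in later tests; inconclusive means above 50% with abnormal brightness, or retests that disagree; inactive means below 50% or failed in later tests; about a fifth of its hits are not listed in these tables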;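 further: calls also rest on retests at 20 µM and on dose response follow-up; controls were probe without protein and protein plus probe with vehicle; some compounds called inactive have numbers as strong as hits; many hits fall short of the cut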
Target sequence (P11940 whole entry, looked up): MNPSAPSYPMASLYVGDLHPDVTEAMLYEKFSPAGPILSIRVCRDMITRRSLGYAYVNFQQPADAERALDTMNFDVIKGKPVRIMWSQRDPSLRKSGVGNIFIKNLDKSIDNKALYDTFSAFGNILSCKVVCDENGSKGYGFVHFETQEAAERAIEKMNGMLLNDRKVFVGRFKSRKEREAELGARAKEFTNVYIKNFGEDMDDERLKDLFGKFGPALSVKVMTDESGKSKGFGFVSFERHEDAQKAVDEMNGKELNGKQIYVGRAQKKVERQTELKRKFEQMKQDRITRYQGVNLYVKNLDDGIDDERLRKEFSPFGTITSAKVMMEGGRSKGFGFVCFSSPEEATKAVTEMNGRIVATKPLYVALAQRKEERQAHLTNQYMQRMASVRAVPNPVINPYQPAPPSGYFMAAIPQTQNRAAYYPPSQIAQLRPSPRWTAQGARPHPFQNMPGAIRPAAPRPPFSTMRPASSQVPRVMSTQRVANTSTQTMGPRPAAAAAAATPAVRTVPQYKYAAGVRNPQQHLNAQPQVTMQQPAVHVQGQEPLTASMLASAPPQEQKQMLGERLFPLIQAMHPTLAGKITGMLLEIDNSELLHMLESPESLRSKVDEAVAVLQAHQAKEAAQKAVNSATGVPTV
eIF4H FP inh = inhibitors of RNA binding by human eIF4H; AID 2012; 0.94% of 290,000 active; inhibition, % at 35 µM; eIF4H fluorescence polarization binding assay; Q15056;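 active means 50% or more with normal probe brightness, or confirmed in later tests; inconclusive means above 50% with abnormal brightness, or retests that disagree; inactive means below 50% or failed in later tests; about a fifth of its hits are not listed in these tables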;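 further: calls also rest on retests at 20 µM and on dose response follow-up; 0% = protein and probe with vehicle and 100% = probe without protein; strong numbers were not always called active; many hits fall short of the cut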
Yeast UUG start = alters start codon recognition fidelity in yeast. 0.13% of 350,000 active. S. cerevisiae UUG-firefly luciferase reporter, luminescence/redox ratio. activity score, % at 18.7 µM. AID 602363;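 active means replicate mean at a twofold rise or more, about +100% in these data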;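 further: firefly luciferase made from a UUG start codon reports start codon fidelity; reporter light over untreated wells divided by growth signal over untreated wells; some hits fall short of that in this replicate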
Rce1 inhib = inhibitors of yeast Ras-converting enzyme; yeast membranes, quenched prenylated peptide cleavage fluorescence; 0.27% of 290,000 active; AID 2563; calls only;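 active means fall in fluorescence gain of 50% or more versus controls, with final raw signal at or below 3038400; inconclusive means same 50% fall but final raw signal above 3038400; inactive means fall in fluorescence gain under 50%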;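 further: plate controls were neutral control wells for no effect and wells lacking membranes for full effect; tested at 10 µM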
eIF4H FP inh retest = also measured in eIF4H FP inh; calls as there; inhibition, %; compound at 20 µM; confirmation average;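 mean of two retest wells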
PABP polyA inh retest = second read-out of PABP polyA inh, no call of its own (marks repeat the call); inhibition, %; compound at 20 µM; confirmation repeats;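 mean of two retest wells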
MT1-MMP act inh RFP = further read-out of MT1-MMP act inh, marked with its call; RFP signal change, %; measured here: RFP expression control read;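 0 = vehicle wells; hits needed this value within 50% of zero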
* hit, by the source's call; i = inactive; ? = inconclusive; · = not tested or not shown; & = joins results of further samples. Rows are unselected, and some 3% of all compounds hit somewhere here.

SMILES | MT1-MMP act inh | MT1-MMP act inh RFP | CSC inhib | HIV Env fusion | PABP polyA inh | eIF4H FP inh | Yeast UUG start | Rce1 inhib | others
COCCN(C(=O)c1cc2c(s1)CCCCC2)c1c(N)n(CC(C)C)c(=O)[nH]c1=O | 2 | 4 | 10 | · | · | · | -17 | ·
CCCCC1(Br)C(=O)N(c2ccccc2)N(c2ccccc2)C1=O | -6 | 3 | 21 | 11 | · | · | -7 | ·
COc1ccc(C(=O)/C=C/NCc2ccc(F)cc2)cc1OC | -1 | 0 | -2 | -9 | -3 | -4 | -32 | i
CCCc1cc(=O)[nH]c(SCC(=O)NCCC2=CCCCC2)n1 | 6 | 0 | -13 | -9 | -2 | 1 | · | ·
O=C(NCc1ccc2c(c1)OCO2)C1CC(c2ccc(Cl)c(Cl)c2)=NO1 (configuration not stated) | 2 | 4 | · | · | -11 | -12 | -7 | i
Fc1ccc(Cn2cccc2C2=NC(c3ccccc3)CO2)cc1 (configuration not stated) | -2 | -5 | 10 | -12 | -2 | 0 | · | i
Cc1ccccc1Nc1c([N+](=O)[O-])ccc2c1=NC1(CCCCC1)N=2 | 24 | -3 | 3 | · | 0 | 10 | -14 | i
O=S(=O)(/N=C(/Nc1ccc(Cl)c(S(=O)(=O)Nc2ccccc2Cl)c1)c1ccc(F)cc1)c1ccccc1 | 8&8 | -1&-2 | 33 | 5&-12 | 15 | -8 | · | i
COc1ccc(-n2c(SCC(=O)N3CCN(c4ccccc4)CC3)nc3c(c2=O)SCC3)cc1 | -2 | -1 | -8 | -55 | 2 | 3 | -4 | i
CN(C(=O)COC(=O)c1cc(-c2ccc(Cl)s2)nc2ccccc12)C1CCS(=O)(=O)C1 (configuration not stated) | -8 | -2 | -12 | 4 | -6 | -9 | · | i
CC(NC(=O)c1ccc(C(C)(C)C)cc1)C(c1cccs1)N1CCOCC1 (configuration not stated) | -4 | -2 | -12 | 9 | -6 | -3 | -8 | i
COc1ccc(S(=O)(=O)CCC(=O)NCCc2ccc(Cl)cc2)cc1 | 2 | 2 | 12 | · | -7 | -9 | 2 | i
N=c1nc(-c2ccccc2)ccn1O | -3 | 0 | · | · | 2 | -5 | -1 | i
CCC(CC)c1nnc(NC(=O)c2ccc3c(c2)OCO3)s1 | 3 | 3 | -3 | -11 | -5 | -17 | -6 | i
O=C(Nc1ncc(Cc2cccc(Cl)c2)s1)c1cccs1 | 4 | -2 | · | · | -6 | -16 | -11 | i
CCCCCCC(=O)N(O)C1CC(=O)N(c2ccccc2)C1=O (configuration not stated) | · | · | 9 | · | 0 | -10 | · | i
Cc1cccc(CC2S/C(=N/N=C/c3ccco3)N(c3ccccc3)C2=O)c1 (configuration not stated) | 1 | 1 | -4 | 3 | 0 | 68 | · | i | eIF4H FP inh retest=4;PABP polyA inh retest=-4
Cc1nn2c(N3CCN(C4CCCC4)CC3)cc(C(C)(C)C)nc2c1-c1ccccc1 | 6 | -1 | 22 | -73 | -4 | -4 | -10 | i
O=C(CCS(=O)(=O)c1cccc2nonc12)NCCc1ccccc1Cl | 2 | 4 | 1 | -25 | 2 | 3 | 9 | i
CSc1nc(N2CCN(Cc3ccc4c(c3)OCO4)CC2)c2ccccc2n1 | 2 | -6 | 17 | · | -10 | -5 | 4 | i
CN(C(=O)COc1ccc(Br)cc1Cl)C1CCCCC1 | -1 | -3 | -7 | 10 | -3 | 2 | -4 | i
CC1CCN(S(=O)(=O)c2cccc(C(=O)N(Cc3ccccc3)c3ccccn3)c2)CC1 | 4 | -4 | -2 | 12 | 3 | -2 | · | i
O=C(O)CC1c2ccccc2S(=O)(=O)N1Cc1ccccc1 (configuration not stated) | 1 | 3 | 0 | 15 | 4 | -7 | -13 | i
CN(Cc1cn(-c2ccccc2)nc1-c1ccc(F)cc1)C(=O)CCC(=O)O | 0 | 2 | -1 | -17 | -1 | 0 | · | i
CC(=O)Nc1ccc(-c2csc(NCc3ccccc3)n2)cc1 | 1 | 1 | 17 | -42 | 7 | 4 | · | i

Continuation:
SMILES | MT1-MMP act inh | MT1-MMP act inh RFP | CSC inhib | HIV Env fusion | PABP polyA inh | eIF4H FP inh | Yeast UUG start | Rce1 inhib | others
CCOc1ccccc1NC(=O)c1c(Br)cnn1C | 1 | 0 | -5 | · | -8 | 1 | · | i
O=C(Nc1ccc(-c2cn3ccsc3n2)cc1)C1CCCC1 | -3 | -4 | 14 | · | -2 | 3 | -32 | i
O=C(COC(=O)CCc1nc2ccccc2c(=O)[nH]1)Nc1ccccc1OC(F)F | -4 | 0 | 6 | · | · | · | -15 | ·
Cc1cc(C)n(C(=O)CN2C(=O)COc3ccccc32)n1 | 5 | 9 | -5 | -25 | 1 | 6 | 0 | i
Cc1ccc2c(C(=O)CN3CCCCC3)c(C)[nH]c2c1 | 2 | 1 | -12 | 7 | 3 | 6 | -9 | i
O=C(CSc1nnc(Cc2ccccc2)o1)NCc1ccco1 | 4 | 4 | 6 | -19 | 5 | -16 | -8 | i
COc1cccc(Nc2ccc([N+](=O)[O-])c3nonc23)c1 | -8 | -6 | 17 | -5 | -16 | -14 | -13 | i
COc1ccc(Br)cc1CN(C)C(=O)c1ccccc1SCC(=O)N1CCCC1 | -5 | -2 | · | -11 | · | · | 1 | ·
Cc1cc2ncn(C(=O)N3CCCC3)c2cc1C | -2 | 1 | · | · | 1 | -2 | -3 | i
CC(C)(C)Cc1nnc(NS(=O)(=O)c2ccccc2)s1 | 1 | 4 | -7 | 14 | -1 | -1 | · | i
Cc1ccc(-n2ccc(=O)c(C(=O)Nc3ccc(S(=O)(=O)Nc4onc(C)c4C)cc3)n2)cc1 | -2 | -3 | 4 | 2 | 14 | 3 | 31 | i
COc1cc(OC)cc(C(=O)NCC(=O)NC(C)c2ccccc2)c1 (configuration not stated) | 0 | -2 | -6 | -5 | -5 | -2 | -12 | i
CCN1C(=O)/C(=C/c2ccc(N3CCCC3)cc2)NC1=S | -72 | 3 | 9 | · | 1 | ? | · | i
Cc1nc2ccc(NC(=O)CSc3ccccc3)cc2s1 | -1 | 1 | -15 | · | · | · | -18 | ·
O=C(CN1C(=O)CSc2ccc(S(=O)(=O)N3CCCCCC3)cc21)NCCc1ccccc1 | -1 | 0 | · | -9 | · | · | 1 | ·
Cc1ccc(C(C(=O)NC2CCCC2)N(C(=O)CNC(=O)c2cccs2)c2cccnc2)o1 (configuration not stated) | -2 | 4 | -8 | -44 | -5 | 5 | 6 | i
COc1ccc(C/C(O)=C(\C#N)c2nc3ccccc3[nH]2)cc1OC | 5 | 1 | · | · | -11 | -8 | -1 | i
COC(=O)c1cccc2nc3c(C(C)O)cccc3nc12 (configuration not stated) | -11 | -6 | -8 | · | 7 | -8 | -14 | i
CCOC(=O)c1c(C)sc2c1N(C(=O)CN(CC)CC)c1ccccc1S2 | 0 | 9 | -12 | -2 | 4 | -14 | 13 | i
O=C(O)CSc1nc2sc3c(c2c(=O)n1-c1ccccc1)CCC3 | 7 | 6 | -10 | -1 | 7 | 8 | -15 | i
Cn1c(CN2CCOCC2)nc2cc(NC(=O)c3ccccc3Cl)ccc21 | 7 | 1 | -3 | -34 | -5 | -4 | -22 | i
CCOC(=O)CCC(NC(=O)CCC(=O)NC(CCC(=O)OCC)C(=O)OCC)C(=O)OCC (configuration not stated) | 0 | 1 | · | 8 | 1 | -1 | · | i
Cc1ccc(NC(=O)c2cc([N+](=O)[O-])ccc2N2CCCC2)cc1 | -1 | -1 | · | 17 | -1 | 3 | · | i
O=C(/C(=C/c1ccccc1)n1cncn1)c1ccc(Cl)cc1Cl | -3 | -2 | 11 | · | -4 | -14 | -10 | i
CCN(CC(=O)Nc1ccc(NC(C)=O)cc1)C(=O)c1ccccc1SCC(=O)N1CCCC1 | -1 | 1 | -13 | 16 | · | · | -14 | ·

Seven entries drawn at random from the list so far:
SMILES | MT1-MMP act inh | MT1-MMP act inh RFP | CSC inhib | HIV Env fusion | PABP polyA inh | eIF4H FP inh | Yeast UUG start | Rce1 inhib | others
O=C(/C(=C/c1ccccc1)n1cncn1)c1ccc(Cl)cc1Cl | -3 | -2 | 11 | · | -4 | -14 | -10 | i
Cn1c(CN2CCOCC2)nc2cc(NC(=O)c3ccccc3Cl)ccc21 | 7 | 1 | -3 | -34 | -5 | -4 | -22 | i
Cc1ccc(-n2ccc(=O)c(C(=O)Nc3ccc(S(=O)(=O)Nc4onc(C)c4C)cc3)n2)cc1 | -2 | -3 | 4 | 2 | 14 | 3 | 31 | i
COc1cccc(Nc2ccc([N+](=O)[O-])c3nonc23)c1 | -8 | -6 | 17 | -5 | -16 | -14 | -13 | i
COc1ccc(Br)cc1CN(C)C(=O)c1ccccc1SCC(=O)N1CCCC1 | -5 | -2 | · | -11 | · | · | 1 | ·
CCOc1ccccc1NC(=O)c1c(Br)cnn1C | 1 | 0 | -5 | · | -8 | 1 | · | i
CCN1C(=O)/C(=C/c2ccc(N3CCCC3)cc2)NC1=S | -72 | 3 | 9 | · | 1 | ? | · | i

The results go on.
SMILES | MT1-MMP act inh | MT1-MMP act inh RFP | CSC inhib | HIV Env fusion | PABP polyA inh | eIF4H FP inh | Yeast UUG start | Rce1 inhib | others
Cc1cc(C(=O)CSc2nc3ccccc3o2)c(C)n1C1CC1 | -3 | -7 | -10 | -76 | 98* | 88* | -16 | · | eIF4H FP inh retest=91*;PABP polyA inh retest=90*
Nc1nonc1-n1nnc(C(=O)N/N=C/c2ccc(Cl)cc2)c1-c1ccc2c(c1)OCO2 | -1 | -1 | -3 | 19 | -5 | -3 | -21 | i
CCN(CC(=O)Nc1ccc2c(c1)OCCO2)CC(=O)Nc1ccc(C)c([N+](=O)[O-])c1 | 1 | 4 | -6 | -28 | · | · | -13 | ·
COc1ccc(CCNC(=O)C(=O)NCC2OCCN2S(=O)(=O)c2ccc(OC)c(OC)c2)cc1OC (configuration not stated) | 3 | -3 | -10 | · | 3 | -9 | 0 | i
C=CCNC(=O)c1ccc(C2SCC(=O)N2Cc2ccco2)cc1 (configuration not stated) | -4 | -1 | -4 | -15 | 10 | 10 | · | i
COc1ccc(OC)c(NC(=O)CSc2nc3n[nH]c(C)c3c(=N)n2-c2cccc(Cl)c2C)c1 | 0 | -10 | 21 | 12 | 2 | -9 | -1 | i
Cc1csc(CNc2ncnc3ccc(-c4cccnc4)cc23)c1 | -1 | -5 | · | 2 | · | · | -3 | ·
COc1ccc(NC(=O)CN(c2ccccc2OC)S(=O)(=O)c2cccs2)cc1Cl | 3 | -1 | 14 | 26 | · | · | -9 | ·
OCC[C@@H]1C[C@H](O)[C@@H](O)[C@]2(OCCc3cc(C(F)(F)F)ccc32)O1 | 0 | 0 | · | 14 | · | · | -12 | ·
Cn1c(=O)c([N+](=O)[O-])c(NC2CCS(=O)(=O)C2)c2ccccc21 (configuration not stated) | 1 | -1 | -26 | 0 | -2 | -3 | · | i

Screening results as filed in PubChem BioAssay.
